HCMV NEC inh – disrupts HCMV UL50-UL53 complex binding. HTRF UL50-UL53 interaction, normalized percent inhibition. inhibition, % (no concentration beside the values). actives 0.15% (n = 190,000);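 active = both replicates at 50% or more, plus weaker picks with an unusually low signal ratio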;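 also: stock transfer was 100 nL into about 20 µL; 0% = negative control wells and 100% = wells with untagged competitor protein; inactives centre near -12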
Sa growth inh – S. aureus growth inhibition; relative growth, % (no concentration beside the values); actives 0.53% (n = 170,000); S. aureus RN4220 growth, OD600, 20 h, 42 °C; hits give low values;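 active = growth at 42 °C up to 50% and 20 or more points under that at 30 °C, or under 10% at both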;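 also: 300 nL library stock went into each well; scaled to the means of positive and negative controls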
GIV-Gai inh – inhibitors of GIV GBA-motif binding to rat Galpha-i3; AID 1224905; percent of control (FP), % (test concentration not listed); P08753; actives 0.42% (n = 210,000); Galpha-i3/FITC-GIV peptide fluorescence polarization, 90 min; hits give low values; scaled: aluminum fluoride 0%, vehicle 100%;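 active = replicate mean at 85% of control or lower, very high polarization wells dropped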;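 also: wells of about 15 µL received 100 nL stock; the first replicate is given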
Target sequence (P08753 whole entry, looked up): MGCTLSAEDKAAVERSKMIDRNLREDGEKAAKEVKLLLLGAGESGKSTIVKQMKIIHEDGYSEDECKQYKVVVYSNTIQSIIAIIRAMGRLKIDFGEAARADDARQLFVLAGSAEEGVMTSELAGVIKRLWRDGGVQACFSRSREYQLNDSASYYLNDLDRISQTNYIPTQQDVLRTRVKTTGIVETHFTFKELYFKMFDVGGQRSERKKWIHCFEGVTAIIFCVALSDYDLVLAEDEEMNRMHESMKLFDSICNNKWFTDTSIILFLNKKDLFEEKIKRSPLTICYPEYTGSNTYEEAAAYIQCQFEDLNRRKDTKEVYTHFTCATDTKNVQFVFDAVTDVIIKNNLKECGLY
Sa growth inh second temp – also measured in Sa growth inh; calls as there; relative growth, %; measured here: growth at 30 °C;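 optical density after 20 h as mean of two plates; 100% = untreated growth and lower means inhibition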
Starred values were filed as active, the others as inactive; nt = not tested or not shown; & = joins results of further samples. Compounds were not picked by outcome; overall some 0.85% were active at least once.

SMILES	HCMV NEC inh	Sa growth inh	Sa growth inh second temp	GIV-Gai inh
C=CCOc1ccc(/C=C/C(=O)N2CCN(S(=O)(=O)c3cccs3)CC2)cc1	-34	103	102	nt
FC(F)(F)c1ccc2nnnn2c1	20	102	100	nt
CC12CN(S(=O)(=O)c3ccccc3)CC(C)(CN(S(=O)(=O)c3ccccc3)C1)C2	-5	89	91	103
Cc1nccn1-c1cc(C(C)C)c(C#N)c2nc3ccccc3n12	-18	110	84	101
O=C(CCCn1nc(-c2ccccc2)c2cc(Cl)ccc21)NCc1ccccn1	6	nt	nt	91
FC(F)(F)c1cc(-c2noc(-c3ccc4c(c3)CCO4)n2)cc(C(F)(F)F)c1	-25	97	91	104
Cc1ccc(-c2csc(Nc3ccccc3)[n+]2NC(=O)c2ccncc2)cc1	-23	96	74	nt
Cc1ccc(SCc2cc(=O)n3nc(-c4ccco4)sc3n2)cc1	-28	100	90	107
CCNC(=O)CC1C(=O)N(c2ccc(F)cc2)C(=O)N1Cc1ccc(C)cc1 (stereo not given)	-36	103	90	97
CCN(Cc1c(C#N)c2ccccc2n1C)c1ccccc1	2	105	86	107
O=S(=O)(c1ccccc1)c1nc(-c2ccccc2)oc1N1CCN(c2cccc(Cl)c2)CC1	3	103	96	107
NC(=O)c1c(NC(=O)COC(=O)c2ccc(Br)o2)sc2c1CCC2	-29	107	81	nt
C/S(=N\S(=O)(=O)c1ccccc1)c1ncc(Cl)cc1C(F)(F)F (stereo not given)	6	100	95	111
O=c1cc2nc(-c3cccs3)nc(SCCOc3ccc(Cl)cc3)n2[nH]1	nt	88	88	102
Cc1nnc(SCc2ccccc2C(=O)O)n1C	-23	99	105	102
Cn1c(C(=O)NCCN2CCN(c3ccccc3F)CC2)cc2c(=O)n(C)c3ccccc3c21	-12	100	89	104
OC(C#CCN1CCCC1)(c1ccccc1)C1CCCC1 (stereo not given)	-19	100	92	101
Cc1scc(-c2ccccc2)[n+]1CCO	-14	115	98	109
Cc1cc(C(=O)Oc2ccc(C#N)cc2)c(C)s1	-22	99	90	nt
CC(C(=O)Oc1ccc2c(c1)OCO2)N1C(=O)c2ccccc2C1=O (stereo not given)	-11	97	94	nt
CSc1nc(C)c(CCC(=O)O)c(C)n1	2	105	96	nt
CCC1CN(C(=O)NCc2ccc(F)cc2)c2cc(Cl)ccc2O1 (stereo not given)	-10	89	85	101
O=C(NCCc1csc2nc(-c3ccccc3)nn12)c1cccs1	nt	90	79	109
COC(=O)c1sc(-c2ccc(F)cc2)cc1NC(=O)C(F)(F)F	-16	86	96	99
Cc1ccc(N2CCN(S(=O)(=O)c3ccc(-n4cnnn4)cc3)CC2)c(C)c1	10	90	93	102

Later entries:
SMILES	HCMV NEC inh	Sa growth inh	Sa growth inh second temp	GIV-Gai inh
Cc1ccc(C)c(CSc2nnc3[nH]c(=O)cc(C)n23)c1	nt	87	87	98
COC(=O)Cn1nc(C)c2c(C)n(-c3ccccc3)nc2c1=O	-28	102	84	105
COc1ccc(N(C)C(=O)c2nc(-c3cccc(F)c3)n3c2CCCCC3)c(OC)c1	nt	119	92	103
COc1ccc(-c2csc(Cc3nnc(N4CCOCC4)n3-c3ccccc3)n2)cc1	-6	104	85	nt
COc1ccc(CNc2ccc3cn[nH]c3c2)c(OC)c1C	52*	125	80	101
CC(C)(C)C1CCC(C(=O)On2c(-c3cccc(Cl)c3)nc3ccccc3c2=O)CC1 (stereo not given)	-9	nt	nt	105
O=C(NC1(O)C(=O)c2ccccc2C1=O)c1cnn(-c2ccccc2)c1C(F)(F)F	49	100	87	87
Cc1cc(C)cc(NC(=O)CSc2ccc3nnc(-c4cccs4)n3n2)c1	nt	106	85	100
CC(C)N(CCC#N)S(=O)(=O)c1cccc2nsnc12	-82	nt	nt	99
CCOC(=O)C1C2C=CC3(CN(C(C)C)C(=O)C13)O2 (stereo not given)	nt	118	95	103
CCOc1ccc(CNC(=O)CCC(=O)N2CCSc3ncccc32)cc1OC	7	nt	nt	105
COc1c(/C=C(\NC(C)=O)C(=O)O)cccc1OC1CCCC1	-8	106	77	262
COc1ccc(C(=O)NCC2OCCc3ccccc32)cc1 (stereo not given)	nt	99	87	98
CCc1ccc(C(=O)CC2(O)C(=O)N(CCc3ccccc3)c3ccc(Br)cc32)cc1 (stereo not given)	-52	90	70	105
CCOc1ccc(-n2nc(CO)c(C(=O)NCc3ccc(Cl)cc3)n2)cc1	-14	97	91	101
COc1ccc(Cl)cc1NC(=O)N1CCC2(CC1)Oc1ccccc1C(=O)N2Cc1ccc(F)cc1	-15	115	98	102
OCc1ccccc1NC(=S)Nc1cccnc1	16	97	77	nt
Cc1ccccc1Cc1c(C)nc2c(C(=O)N3CCOCC3)cnn2c1C	nt	114	83	105
Cc1c(C)c(C)c(CNC(=S)NN)c(C)c1C	-35	89	89	99
CCOc1ccc(-n2ccn3c(CCCC(=O)NCCc4c[nH]c5ccccc45)nnc3c2=O)cc1	-26	nt	nt	109
CCOc1ccc(OCC)c(NC(=O)C2CCN(S(=O)(=O)c3ccc(Br)s3)CC2)c1	1	96	86	102
CCN(CC)c1cc2c(cc1F)c(=O)c(S(=O)(=O)c1cccc(C)c1)cn2C	nt	114	89	109
O=c1oc2ccccc2n1Cc1ccccc1	4	99	93	107
CCOC(=O)C1CCN(C(=O)c2c(F)cccc2Cl)CC1	-25	88	83	99
COCC(C)NC(=O)c1ccc(OC)cc1OC (stereo not given)	-6	108	100	99

(continued)
SMILES	HCMV NEC inh	Sa growth inh	Sa growth inh second temp	GIV-Gai inh
N#Cc1c(N)nc(SCC(=O)c2cc3ccccc3oc2=O)c(C#N)c1-c1ccc(O)cc1	-24	120	89	102
O=C(O)c1ccn(Cn2cnc3ccccc32)n1	nt	119	97	105
Cc1ccc(-c2nc3ccccc3[nH]2)cc1NC(=O)C(C)C	-21&-13	85	76	100&102
CC1CCN(C(=O)CSc2nnnn2C2CC2)c2ccccc2S1 (stereo not given)	12	91	95	nt
COc1ccc(Cl)cc1N(C)C(=O)Cc1noc2ccc(C)cc12	6	108	95	102
CCc1ccc(NC(=O)/C(C#N)=C/c2cc(C#N)n(C)c2C)cc1	0	91	95	nt
O=C(Cc1cccs1)Nc1c2c(nn1-c1ccccc1)CSC2	-22	88	56	102
CCOC(=O)CNC(=O)N1Cc2c(sc3c2CCCC3)-n2cccc2C1C (stereo not given)	-21	nt	nt	101
Cc1cc(N=Cc2c(O)n(-c3cccc(Cl)c3)c(=O)c3ccccc23)no1	-21	93	90	nt
COc1ccc(C2=CC(c3ccccc3)c3ccccc3O2)cc1OC (stereo not given)	nt	97	78	98
CC(=O)Nc1cc(C(=O)N2CCCCC2)ccc1Sc1ccc(Cl)cc1	6	99	93	111
CC(C)Oc1ccc(CNC(=O)C(C)n2ccc3cc(S(=O)(=O)N4CCCCCC4)ccc32)cc1 (stereo not given)	nt	95	90	101
CCOc1ccccc1C(=O)Nc1c(-c2ccc(F)cc2)nc2ccccn12	3	nt	nt	102
O=C(C1CC1)N1CCc2cc(Br)cc(S(=O)(=O)N3CCN(c4cccc(Cl)c4)CC3)c21	4	107	90	103
Cc1cc(C(=O)OCC(=O)N(c2ccccc2)c2ccccc2)c2ccccc2n1	-22	86	88	nt
S=C1NCN(C2CCCCC2)CN1	nt	95	98	102
FC(F)(F)c1nnc(Nc2cccnc2)s1	14	91	87	100
CCOC(=O)c1c(-c2ccccc2)csc1NC(=O)CSc1nc2ccccc2o1	-17	nt	nt	101
NC(=O)CSc1nc2cc3c(cc2c(=O)n1CCCCCC(=O)NCc1ccc2c(c1)OCO2)OCO3	nt	98	91	104
COc1cccc(-c2nn(C)c3sc(C(=O)N4CCN(c5ccccc5)CC4)cc23)c1	nt	107	88	102
NNC(=O)c1ccc2c(=O)n3c(nc2c1)CCCCC3	-2	94	95	nt
NS(=O)(=O)c1cccc(S(N)(=O)=O)c1	-29	115	97	104
C=CCn1nnc(NCc2ccc(-c3cc(Cl)ccc3Cl)o2)n1	8	nt	nt	104
COc1ccc(/C=C/C(=O)OC2CCCCC2=O)cc1 (stereo not given)	-22	133	94	nt
C=CCn1c(SCC(=O)/C(C#N)=C(\C)N)nnc1-c1ccoc1C	-6	89	93	nt

A portion of the results above:
SMILES	HCMV NEC inh	Sa growth inh	Sa growth inh second temp	GIV-Gai inh
CC(C)Oc1ccc(CNC(=O)C(C)n2ccc3cc(S(=O)(=O)N4CCCCCC4)ccc32)cc1 (stereo not given)	nt	95	90	101
CCOc1ccccc1C(=O)Nc1c(-c2ccc(F)cc2)nc2ccccn12	3	nt	nt	102
O=C(C1CC1)N1CCc2cc(Br)cc(S(=O)(=O)N3CCN(c4cccc(Cl)c4)CC3)c21	4	107	90	103
Cc1cc(C(=O)OCC(=O)N(c2ccccc2)c2ccccc2)c2ccccc2n1	-22	86	88	nt
S=C1NCN(C2CCCCC2)CN1	nt	95	98	102
FC(F)(F)c1nnc(Nc2cccnc2)s1	14	91	87	100
CCOC(=O)c1c(-c2ccccc2)csc1NC(=O)CSc1nc2ccccc2o1	-17	nt	nt	101
NC(=O)CSc1nc2cc3c(cc2c(=O)n1CCCCCC(=O)NCc1ccc2c(c1)OCO2)OCO3	nt	98	91	104
COc1cccc(-c2nn(C)c3sc(C(=O)N4CCN(c5ccccc5)CC4)cc23)c1	nt	107	88	102
NNC(=O)c1ccc2c(=O)n3c(nc2c1)CCCCC3	-2	94	95	nt
NS(=O)(=O)c1cccc(S(N)(=O)=O)c1	-29	115	97	104
C=CCn1nnc(NCc2ccc(-c3cc(Cl)ccc3Cl)o2)n1	8	nt	nt	104
COc1ccc(/C=C/C(=O)OC2CCCCC2=O)cc1 (stereo not given)	-22	133	94	nt
C=CCn1c(SCC(=O)/C(C#N)=C(\C)N)nnc1-c1ccoc1C	-6	89	93	nt

The listing continues:
SMILES	HCMV NEC inh	Sa growth inh	Sa growth inh second temp	GIV-Gai inh
O=C(NCc1ccc2c(c1)OCO2)NCc1ccc2c(c1)OCO2	-32	75	86	99
COc1ccccc1NC(=O)COc1ccc(C2Nc3ccccc3S(=O)(=O)N2Cc2ccccc2)cc1 (stereo not given)	-9	nt	nt	98
Cc1noc(C)c1S(=O)(=O)N1CCCCC1	5	108	104	103
CCC(C(=O)NCCCOC)N1C(=O)CCCc2ccccc21 (stereo not given)	-10	nt	nt	108
O=C(CCn1c(=O)oc2cc(Cl)ccc21)n1c(=O)oc2cc(Cl)ccc21	-15	89	84	nt
O=C(NC1CCCCC1)C1CCN(c2ccnc(-c3ccc(F)cc3)n2)CC1	-9	nt	nt	109
N#Cc1cccc(C(F)(F)F)c1	-12	92	91	nt
O=C(NC1CCN(Cc2ccccc2)CC1)c1cccn1CCc1ccccn1	5	108	95	106
Clc1nccc2ccc(Br)cc12	nt	60	58	107
Cc1ccc(C(C)C)c(OCCCCn2c(CO)nc3ccccc32)c1	-25	nt	nt	106
Cc1cccc(NC(=O)CSC2=C(C#N)C(c3ccco3)C3=C(CCCC3=O)N2)c1 (stereo not given)	nt	83	66	99
CC(=O)N(Cc1ccccc1)Cc1cn(-c2ccccc2)nc1-c1cc2ccccc2o1	5	112	93	110
COc1ccc(-n2nc(C(=O)O)c(=O)n(C)c2=O)cc1	-17	108	83	104
Cc1ccc(NC(=O)Nc2cccs2)cc1	nt	95	78	112
CSc1ccc(CN(CCO)Cc2ccccc2)cc1	3	95	98	104
CCOC(=O)c1[nH]c2ccc(F)cc2c1N	-76	nt	nt	104
O=C(CSC1=Nc2ccccc2N=C(c2ccc(F)cc2)C1)NCc1ccccc1Cl	nt	89	86	105
COCCNC(=O)Cn1c(C(=O)OC)ccc1-c1ccco1	-3	110	93	110
CCOC(=O)c1ccc(NC(=O)c2ccc3nc(-c4ccccc4)cc(OCC)c3c2)cc1	-7	nt	nt	102

Screens as filed in PubChem.
